TRPML1 agonist – qHTS for Agonists of the Human Mucolipin Transient Receptor Potential 1 (TRPML1) | TRPML1-expressing cells, Ca2+ dye fluorescence, FDSS; host cell line not named in the record; reference of the full effect not given here | activation, % (concentration not given with the values) | 410,000 compounds, 0.12% hits; in the data active = activation above about 50%; inconclusive = about 30% to 50%; inactive = below about 30%; note: 0% is about no effect; the text of the record puts the active cut at 80%
Target sequence (Q9GZU1 whole entry, looked up): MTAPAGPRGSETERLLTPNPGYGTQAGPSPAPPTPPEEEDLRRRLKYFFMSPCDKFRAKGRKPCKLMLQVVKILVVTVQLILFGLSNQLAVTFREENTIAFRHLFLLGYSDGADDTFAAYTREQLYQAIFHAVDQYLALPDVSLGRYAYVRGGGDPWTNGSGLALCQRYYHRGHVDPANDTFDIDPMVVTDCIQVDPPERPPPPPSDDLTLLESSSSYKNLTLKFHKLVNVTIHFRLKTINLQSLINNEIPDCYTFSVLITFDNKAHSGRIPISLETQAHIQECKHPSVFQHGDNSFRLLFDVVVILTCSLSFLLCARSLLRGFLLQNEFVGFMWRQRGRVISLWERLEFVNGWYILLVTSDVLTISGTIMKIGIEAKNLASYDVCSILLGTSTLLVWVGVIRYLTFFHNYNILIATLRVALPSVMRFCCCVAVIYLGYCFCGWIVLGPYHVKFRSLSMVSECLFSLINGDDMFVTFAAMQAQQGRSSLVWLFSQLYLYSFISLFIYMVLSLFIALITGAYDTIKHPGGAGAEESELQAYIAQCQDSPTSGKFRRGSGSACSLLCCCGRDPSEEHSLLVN
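Tet-induced TRPML1-DL cells, 1,500 per well, cultured overnight, were loaded with a no-wash Ca2+ dye for 45–90 min. Calcium fluorescence was recorded on the FDSS for 110 s after compound addition, before the EC80 agonist (4 uM 54-4) was added.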
TRPML1 inh – qHTS for Inhibitors of the Human Mucolipin Transient Receptor Potential 1 (TRPML1). TRPML1-inducible cells, Ca2+ dye fluorescence, FDSS; hits give low values; inhibition of EC80 agonist-evoked calcium signal. Mucolipin-1 (Homo sapiens), Q9GZU1. 390,000 compounds, 0.02% hits. activity change, negative = inhibition, % (concentration not given with the values); in the data active means activity change below about -50%; inconclusive means about -30% to -50%; inactive means above about -30%;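 note: stimulus is agonist 54-4 at its EC80 concentration; % is set by controls: 0 for no effect and ±100 for the full control effect; the text of the record puts the active cut at -80%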
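Tet-induced TRPML1-DL cells loaded with Ca8 no-wash calcium dye were read kinetically on FDSS. Compound addition was followed by EC80 agonist 54-4 (4 uM final); inhibition was read over 110 s.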
* = called active by the depositor.

Results for CCC(C(=O)NCCc1ccc(SC)cc1)n1nc(C)c2sc3ccccc3c2c1=O (stereo not given) ?
TRPML1 agonist: 1.4; TRPML1 inh: 11.4

What do the screens show for `Cc1cccc(N2CCN(c3cc(C)nc4c(-c5ccc(Cl)cc5)c(C)nn34)CC2C)c1` (stereo not given)?
TRPML1 agonist: -0.5; TRPML1 inh: -14.0

Results for Cc1ccc(CNC(=O)Cn2c(=O)cc(-c3ccccc3)c3c(C)nn(C)c32)cc1 ?
TRPML1 agonist: 1.3; TRPML1 inh: 14.2

How did Cc1nc2c(C(=O)NCCCN(CC(C)C)CC(C)C)cnn2c(C)c1Cc1c(F)cccc1Cl do in these assays?
TRPML1 agonist: -0.2; TRPML1 inh: -6.5

What do the screens show for `COc1cccc2cc(-c3nc4sc5c(c4c(=O)[nH]3)CCC(C(C)(C)C)C5)c(=O)oc12` (stereo not given)?
TRPML1 agonist: 1.6; TRPML1 inh: 11.5

How did Cc1ccc(S(=O)(=O)N2CCCc3cc(NS(=O)(=O)c4ccc(F)cc4)ccc32)cc1 do in these assays?
TRPML1 agonist: 0.2; TRPML1 inh: 61.6

What do the screens show for `CCc1ccc(NC(=O)C2CCCN(S(=O)(=O)c3ccc4c(c3)oc(=O)n4C)C2)cc1` (stereo not given)?
TRPML1 agonist: 0.1; TRPML1 inh: 18.3

How did COc1ccc(Cl)cc1NC(=O)c1cc(S(=O)(=O)N(C)Cc2ccccc2)ccc1F do in these assays?
TRPML1 agonist: 1.7; TRPML1 inh: inconclusive

What do the screens show for `CCc1nnc(NC(=O)c2nc(S(C)(=O)=O)ncc2Cl)s1`?
TRPML1 agonist: 0.9; TRPML1 inh: -3.4

How did O=C(CCC1N=C2c3ccccc3N=C(SCC(=O)Nc3ccccc3F)N2C1=O)NCc1ccco1 (stereo not given) do in these assays?
TRPML1 agonist: 0.4; TRPML1 inh: 18.2

Results for CCS(=O)(=O)N1CCc2cc(C(=O)Nc3cc(Cl)ccc3C)ccc21 ?
TRPML1 agonist: -0.4; TRPML1 inh: 26.9

How did Cc1c2cnn(CC(=O)O)c(=O)c2c(C)n1Cc1cccc(Cl)c1 do in these assays?
TRPML1 agonist: -0.3; TRPML1 inh: 7.0

Among those listed so far, these contain four or more nitrogen atoms.
What do the screens show for `Cc1cccc(N2CCN(c3cc(C)nc4c(-c5ccc(Cl)cc5)c(C)nn34)CC2C)c1` (stereo not given)?
TRPML1 agonist: -0.5; TRPML1 inh: -14.0

Results for Cc1ccc(CNC(=O)Cn2c(=O)cc(-c3ccccc3)c3c(C)nn(C)c32)cc1 ?
TRPML1 agonist: 1.3; TRPML1 inh: 14.2

How did Cc1nc2c(C(=O)NCCCN(CC(C)C)CC(C)C)cnn2c(C)c1Cc1c(F)cccc1Cl do in these assays?
TRPML1 agonist: -0.2; TRPML1 inh: -6.5

What do the screens show for `CCc1nnc(NC(=O)c2nc(S(C)(=O)=O)ncc2Cl)s1`?
TRPML1 agonist: 0.9; TRPML1 inh: -3.4

How did O=C(CCC1N=C2c3ccccc3N=C(SCC(=O)Nc3ccccc3F)N2C1=O)NCc1ccco1 (stereo not given) do in these assays?
TRPML1 agonist: 0.4; TRPML1 inh: 18.2

Back to the main list, starting 2 compounds before the break.
Results for CCS(=O)(=O)N1CCc2cc(C(=O)Nc3cc(Cl)ccc3C)ccc21 ?
TRPML1 agonist: -0.4; TRPML1 inh: 26.9

How did Cc1c2cnn(CC(=O)O)c(=O)c2c(C)n1Cc1cccc(Cl)c1 do in these assays?
TRPML1 agonist: -0.3; TRPML1 inh: 7.0

How did CCCN1C(=O)c2[nH]nc(-c3ccccc3O)c2C1c1ccc(OCc2ccccc2)c(OC)c1 (stereo not given) do in these assays?
TRPML1 agonist: 0.2; TRPML1 inh: 2.6

Results for CCCN1C(=O)CN(C2CCCCCC2)C(=O)C1c1ccc(OCC)c(OC)c1 (stereo not given) ?
TRPML1 agonist: -0.3; TRPML1 inh: 21.4

How did Fc1ccc(-n2ncc3c(Nc4cccc(Cl)c4)ncnc32)cc1 do in these assays?
TRPML1 agonist: -0.7; TRPML1 inh: 15.2

Results for CCOc1ccc(NC(=O)Cn2c(=O)n(Cc3ccco3)c(=O)c3oc4ccccc4c32)cc1 ?
TRPML1 agonist: 0.5; TRPML1 inh: -23.7

Results for COCCCNc1oc(/C=C/c2cc(OC)c(OC)c(OC)c2)nc1C#N ?
TRPML1 agonist: -0.5; TRPML1 inh: 0.9

How did CCOc1ccc(NC(=O)c2cccc(N3CCCS3(=O)=O)c2)cc1 do in these assays?
TRPML1 agonist: -0.1; TRPML1 inh: -20.1

What do the screens show for `COc1cccc(N2CCN(C(=O)c3cc4c(=O)n(Cc5cccnc5)ccc4nc3C)CC2)c1`?
TRPML1 agonist: 0.3; TRPML1 inh: 24.5

Results for Cc1ccccc1OC(=O)CSc1nnc(-c2ccc3c(c2)OCO3)o1 ?
TRPML1 agonist: 2.4; TRPML1 inh: 49.2

How did CCCCNC(=O)C1=CC(c2ccc3c(c2)OCO3)=NS(=O)(=O)N1C do in these assays?
TRPML1 agonist: -0.3; TRPML1 inh: -27.2

What do the screens show for `COc1ccc(N2CCN(S(=O)(=O)c3c(C)nc4sc(C)cn4c3=O)CC2)cc1`?
TRPML1 agonist: -0.6; TRPML1 inh: -11.9

How did Cc1ccc(CNC(=O)C2CCCN(S(=O)(=O)c3cn(C)cn3)C2)cc1 (stereo not given) do in these assays?
TRPML1 agonist: 1.4; TRPML1 inh: 12.3

How did CCOC(=O)c1ccc(NC(=O)CC2C(=O)N(c3ccc(F)cc3)C(=O)N2Cc2ccc(C)cc2)cc1 (stereo not given) do in these assays?
TRPML1 agonist: 1.7; TRPML1 inh: 1.5

Results for COc1ccc(Cl)cc1-n1nnc(-c2nc(-c3ccc4c(c3)OCO4)no2)c1C ?
TRPML1 agonist: -0.4; TRPML1 inh: -0.8

How did Cc1cccc(-n2cc(-c3ccccc3)c3c(NC(C)C)ncnc32)c1 do in these assays?
TRPML1 agonist: 0.8; TRPML1 inh: 8.7

How did Cc1c(CN(C)C(=O)c2cc(-c3ccccc3)nc3ccc(Br)cc23)cnn1C do in these assays?
TRPML1 agonist: 0.6; TRPML1 inh: -21.5

What do the screens show for `CCOc1ccc(-c2nnc(SCC(=O)Nc3ccccc3C(F)(F)F)o2)cc1`?
TRPML1 agonist: -0.1; TRPML1 inh: -10.0

What do the screens show for `CCc1nn2c(=O)cc(COC(=O)c3ccc(NC(=O)CCc4ccccc4)cc3)nc2s1`?
TRPML1 agonist: 1.5; TRPML1 inh: 41.2

Results for CCOC(=O)N1CCC(NC(=O)c2cnn(-c3cccc(C)c3)c2C2CCN(C(=O)OC(C)(C)C)CC2)CC1 ?
TRPML1 agonist: 0.1; TRPML1 inh: -3.6

Results for O=S(=O)(Nc1cccc(-c2ccc(N3CCOCC3)nn2)c1)c1cc(C(F)(F)F)ccc1Cl ?
TRPML1 agonist: -1.0; TRPML1 inh: 17.4

What do the screens show for `CCCOc1ccc(-c2nonc2NC(=O)c2ccco2)cc1OCCC`?
TRPML1 agonist: 1.1; TRPML1 inh: 1.7

What do the screens show for `CCn1cc(S(=O)(=O)c2ccc(OC)cc2)c(=O)c2cc(F)c(N3CCC(C)CC3)cc21`?
TRPML1 agonist: -0.4; TRPML1 inh: -12.0

What do the screens show for `CCOc1ccccc1N1CC(c2nc3ccccc3n2CCCCOc2ccccc2)CC1=O` (stereo not given)?
TRPML1 agonist: -0.2; TRPML1 inh: -2.1

What do the screens show for `O=C(Nc1ccc(OCc2cc(=O)n3c4c(sc3n2)CCCC4)cc1)c1cccc(F)c1`?
TRPML1 agonist: -0.4; TRPML1 inh: 15.6

What do the screens show for `Cc1ccc(CN(Cc2ccco2)C(=O)c2cccc(C)c2)cc1`?
TRPML1 agonist: 2.3; TRPML1 inh: 32.0

Results for COc1ccc(-c2cc(C(F)(F)F)nc(SCCC(=O)Nc3ccc(F)cc3F)n2)cc1 ?
TRPML1 agonist: 0.3; TRPML1 inh: 8.1

How did CCc1ccc(OC(C)C(=O)N2CCC(c3nc4ccccc4o3)CC2)cc1 (stereo not given) do in these assays?
TRPML1 agonist: 4.1; TRPML1 inh: 4.7

What do the screens show for `CCc1ccc(S(=O)(=O)Nc2ccc3[nH]c(=O)sc3c2)cc1`?
TRPML1 agonist: -0.6; TRPML1 inh: 1.1

What do the screens show for `Cc1ccc(CNC(=O)C2CCN(S(=O)(=O)c3c(C)noc3/C=C/c3c(C)cc(C)cc3C)CC2)cc1`?
TRPML1 agonist: -0.7; TRPML1 inh: -5.0

How did COc1ccc(CNc2nc(-c3ccc(Cl)cc3)cc(C(F)(F)F)n2)cc1 do in these assays?
TRPML1 agonist: 2.5; TRPML1 inh: 22.0

What do the screens show for `O=C(NC1CC(=O)N(c2ccc(F)cc2)C1)c1ccc(S(=O)(=O)N2CCCC2)cc1` (stereo not given)?
TRPML1 agonist: -0.2; TRPML1 inh: -3.7

What do the screens show for `O=C(CSc1ncc(-c2ccccc2)[nH]1)Nc1ccc(Cl)cc1`?
TRPML1 agonist: 4.2; TRPML1 inh: -4.7

How did CCc1cccc(NC(=O)Cn2c(=O)n(CC3CCC(C(=O)NC)CC3)c(=O)c3sccc32)c1 (stereo not given) do in these assays?
TRPML1 agonist: 0.7; TRPML1 inh: 5.6

What do the screens show for `Cc1cc(=O)c2cc(C(=O)Nc3ccc(C)c(C)c3)ccc2[nH]1`?
TRPML1 agonist: -0.5; TRPML1 inh: 9.4

Results for CC(C)CCNC(=O)C(=O)Nc1c2c(nn1-c1ccc(Cl)cc1)CSC2 ?
TRPML1 agonist: -0.8; TRPML1 inh: -23.7

How did COc1ccc(-c2cnnn2-c2ccc(NC(=O)c3ccc(S(=O)(=O)N(C)C)cc3)cc2)cc1 do in these assays?
TRPML1 agonist: 1.2; TRPML1 inh: 15.3

What do the screens show for `CC(=O)Nc1ccccc1OCc1cc(=O)n2c(C)csc2n1`?
TRPML1 agonist: -0.4; TRPML1 inh: -23.3

What do the screens show for `COc1ccc2c(c1)c1c(c(=O)n(-c3ccccc3)c(=O)n1CC(=O)Nc1ccc(C)c(C)c1)n2C`?
TRPML1 agonist: 0.6; TRPML1 inh: 3.6

What do the screens show for `CCN1C(=O)c2ccccc2S(=O)c2ccc(C(=O)N3CCN(c4ccccc4)CC3)cc21` (stereo not given)?
TRPML1 agonist: -1.0; TRPML1 inh: 11.6

How did COC(=O)C(C)Sc1nnc2cc(C)c3cc(C)cc(C)c3n12 (stereo not given) do in these assays?
TRPML1 agonist: 0.7; TRPML1 inh: 9.1

How did Cc1cc(C)c2sc(NC(=O)c3ccc(S(=O)(=O)N4CCCC4)cc3)nc2c1 do in these assays?
TRPML1 agonist: 1.2; TRPML1 inh: -11.9

Results for Cc1ccc(Cn2cc(CCC(=O)NCC(C)c3ccccc3)c3ccccc32)cc1 (stereo not given) ?
TRPML1 agonist: 2.5; TRPML1 inh: 1.7

How did Cc1ccc(-n2c(SCc3cccc(F)c3)nc3[nH]ncc3c2=O)cc1C do in these assays?
TRPML1 agonist: 1.4; TRPML1 inh: 18.2

How did CCOc1ccc(S(=O)(=O)N(CC(=O)Nc2ccc(OC)c(Cl)c2)c2ccccc2)cc1 do in these assays?
TRPML1 agonist: -0.5; TRPML1 inh: -14.6

How did Cc1cccc(S(=O)(=O)c2cn(Cc3ccccc3)c3cc(N4CCOCC4)c(F)cc3c2=O)c1 do in these assays?
TRPML1 agonist: 1.9; TRPML1 inh: 4.7

How did Cc1cccc(Cn2cnc3c(cnn3C(C)(C)C)c2=O)c1F do in these assays?
TRPML1 agonist: 2.2; TRPML1 inh: -2.6

What do the screens show for `COc1ccc(Cl)cc1NC(=O)c1ncn(-c2ccccc2)n1`?
TRPML1 agonist: -0.4; TRPML1 inh: -13.7

What do the screens show for `COc1ccccc1N(CC(=O)Nc1ccc(C)c(Cl)c1)S(=O)(=O)c1ccc(C)cc1`?
TRPML1 agonist: 2.1; TRPML1 inh: 22.1

What do the screens show for `CCC(C(=O)Nc1cc(C(F)(F)F)ccc1Cl)n1nc(C)c2sc3ccccc3c2c1=O` (stereo not given)?
TRPML1 agonist: -0.6; TRPML1 inh: -2.8

What do the screens show for `Cn1c(SCC(N)=O)nc2c([nH]c3ccccc32)c1=O`?
TRPML1 agonist: -0.5; TRPML1 inh: -7.4

Results for CCN(C(=O)Cn1c(SCc2ccccc2F)nc2cccnc21)c1ccccc1 ?
TRPML1 agonist: 1.3; TRPML1 inh: -15.4

Results for CCOC(=O)c1cc(S(=O)(=O)N2CCN(c3ccccc3F)CC2)[nH]n1 ?
TRPML1 agonist: 0.8; TRPML1 inh: -17.1

What do the screens show for `CCOC(=O)c1c(NC(=O)c2cc(-c3ccccc3)on2)sc2c1CCCC2`?
TRPML1 agonist: -0.6; TRPML1 inh: 10.7

Results for CCCSc1ncc(Cl)c(C(=O)Nc2ccc(OC)cc2OC)n1 ?
TRPML1 agonist: -0.3; TRPML1 inh: -14.7

Results for CC1CCCCN1C(=O)c1ccc2c(c1)N(Cc1ccc(F)cc1)C(=O)c1ccccc1S2(=O)=O (stereo not given) ?
TRPML1 agonist: -0.1; TRPML1 inh: -4.0

How did O=S(=O)(Nc1cc(F)ccc1F)c1ccc2[nH]c3c(c2c1)CCCC3 do in these assays?
TRPML1 agonist: 3.8; TRPML1 inh: 17.4

What do the screens show for `Cc1ccc(NC(=O)N2CC3CCCN3c3ccccc32)cc1C` (stereo not given)?
TRPML1 agonist: 5.6; TRPML1 inh: 34.2

Assay outcomes as filed in PubChem BioAssay.

Not all compounds are listed; count on the stated rates, not on these rows.
